Tgondii IFNg: blocks Toxoplasma gondii growth in the presence of IFN-gamma | Toxoplasma gondii growth in IFN-gamma-treated host cells; hits give low values; reference of the scale not given here | activity change, negative = inhibition, %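 (about 20 µM by stock and volumes)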 | 69,000 tested, 3.8% active | AID 1259416;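 active = below -70%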;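 note: host cells are HeLa cells infected with Toxoplasma gondii; parasite growth read as luciferase light; one replicate is shown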
An asterisk follows results filed as active; i = inactive; & = joins results of further samples. These rows are one share of the data, so the mix of outcomes need not match the whole.

SMILES	Tgondii IFNg
CCOC(=O)c1sc(NN=C2Cc3ccccc3C2)nc1C	i
CCOc1ccc(NC(=O)N2CCC3(CC2)NC(=O)c2cc(C)ccc2N3C)cc1	498
COc1cccc(CC2(CO)CCN(c3ccc(C(C)=O)cn3)CC2)c1	-29
CCOC(=O)c1c(NC(=O)c2c(C)nn(-c3ccccc3)c2Cl)sc(C)c1C	-48
CCC(C(=O)NCc1csc(C)n1)N1Cc2ccccc2C1=O (stereo unspecified)	0
Cc1cc(C)c(NC(=O)c2cc3ccccc3c(=O)s2)c(-c2cc(C)[nH]n2)c1	8
CCOc1ccccc1-c1nc(Cn2nnc(C(=O)Nc3cccc(SC)c3)c2C)c(C)o1	89
COc1cc(C(=O)N2C(c3cccnc3)=NC3CCCCC32)cc(OC)c1OC (stereo unspecified)	-8
CC(C)NC(=O)Nc1ccc2c(c1)C(=O)N([C@H](C)CO)C[C@@H](C)[C@@H](CN(C)C(=O)C1CCCCC1)OCCCC[C@H](C)O2	92
Cc1ccc2c(c1)NC1(CCN(S(=O)(=O)c3cnn(C(F)F)c3C)CC1)c1cccn1-2	35
Cc1c(C(=O)NCCCOc2ccccc2F)n(C)c2ccc(Cl)cc12	2
CCN1CCO[C@H]2CCN(C(=O)C3CC=CC3)C[C@H]21	21
O=C1NCC2(CCCN(C(=O)c3ccc4c(c3)CCO4)C2)O1 (stereo unspecified)	-1
COc1ccc(-c2nc(CN3C(=O)C(O)(c4ccc(C)cc4)c4ccccc43)c(C)o2)cc1 (stereo unspecified)	-124*
CC(=O)NCC(=O)N1CCC2(CC1)CC(Nc1ncccn1)C2	15
Cc1ccc(-c2nc(C)c(CCNS(=O)(=O)c3c(C)cc(C)cc3C)s2)cc1	-52
COc1ccccc1C#Cc1ccc([C@@H]2[C@@H](CO)N(C(=O)C3CCC3)[C@H]2C#N)cc1	24
CN(CC(=O)N1CCCC1)S(=O)(=O)c1ccc2[nH]c3c(c2c1)CCCC3	-60
Cc1ccc(=O)n(CC(=O)N2Cc3cnc(C(C)(C)C)nc3C2)n1	2
Clc1ccccc1CNCc1ccccn1	45
CCOc1ccc(CCCC(=O)N2CCCC2c2nonc2C)cc1C (stereo unspecified)	-1
Cn1ccc2cc(CCC(=O)NCc3ccccn3)ccc21	-59
Cc1cc(Nc2ccc(F)c(Cl)c2)nc(NC(=O)C(C)(C)C)n1	-5
CCOc1ccc(-c2nc(CN(c3ccc(C)cc3)S(=O)(=O)c3cccs3)c(C)o2)cc1	6
Cc1onc(-c2cccnc2)c1C(=O)N1CCC(c2[nH]ncc2C(=O)N(C)C)CC1	-8
CN(C)C(=O)CN1C(=O)CCC12CCC(NCc1ccccn1)CC2 (stereo unspecified)	50
O=C(Nc1cc(F)c(Br)cc1F)C(F)(F)Sc1ccccc1	9
Fc1ccccc1CSc1nc(NCc2ccco2)c2ccccc2n1	-17
O=C(Nc1cc(F)ccc1F)N[C@H]1CC[C@@H](CCn2cc(C3CCCCC3)nn2)O[C@@H]1CO	53
CCCc1cnc(-c2ccc(OC)nc2)nc1	360
O=C1O[C@@H]2CN(Cc3cscn3)C[C@@H]2N1CCCN1CCOCC1	-48
O=c1ccc2ccc(O)c(O)c2o1	15&14
O=C(O)/C=C/c1ccc(-c2ccc(O)c(C34CC5CC(CC(C5)C3)C4)c2)cc1	-79*
O=C(CCn1cnnn1)Nc1cccc(-c2cccc(F)c2)c1	2
C[C@@H](NC(=O)C[C@@H]1CC[C@@H]2[C@H](COC[C@H](O)CN2C(=O)Nc2cccc(Cl)c2)O1)c1ccccc1	-33
O=C(O)Cc1ccc(CN2CCCC2c2nc3ccc(F)cc3[nH]2)cc1 (stereo unspecified)	3
CCN(Cc1nc(C)no1)C(=O)CCc1cc(C)cc(C)c1	-8
O=C(NCCc1ccc(Cl)cc1)C(c1ccccc1)c1ccccc1	-11
CC1(C)C(=O)C=C[C@@]2(C)C1C=C[C@]1(C)C2CC[C@@]2(C)[C@H](c3ccoc3)OC(=O)[C@H]3O[C@]321 (stereo partly specified)	-86*
CCC(Cn1ccnc1)NC1CCN(c2ccccc2F)CC1 (stereo unspecified)	0
CN(C)Cc1nnc2n1CCN(Cc1cccs1)CC2	6
N#CCCN(Cc1cccs1)S(=O)(=O)c1ccc2c(c1)CCO2	-91*
CCOc1ccc(S(=O)(=O)c2ccc(Cl)cc2)cc1	16
Cc1ccc(-c2nc3c(s2)CN(S(=O)(=O)c2ccccc2Cl)CC3)cc1	-56
CCOC(=O)N1CCC2(CC1)N=C(CCC(C)C)NC2=O	14
COCCn1cc2c3c(cccc31)CN(C(=O)c1ccccn1)CC2	36
CNC[C@H]1Oc2ccc(N)cc2CC(=O)N([C@H](C)CO)C[C@H]1C	-13
COc1ccc2c3c([nH]c2c1)[C@H](CO)N(C(=O)CN1CCOCC1)CC31CN(Cc2ccccc2)C1	i
COC(=O)c1c(NCC2CCCO2)c2cccc(Cl)c2[nH]c1=O (stereo unspecified)	15
CCn1c(=O)c(-c2nc(-c3ccc(SC)cc3)no2)c(O)c2ccc(F)cc21	7
CCN1Cc2ccccc2CC2(CCN(S(C)(=O)=O)CC2)C1=O	-15
Oc1ccc(-c2nccn2-c2ccc(CN3CCCC3)cc2)cc1O	-1
CCN(CC)c1ccc2ccc(C(=O)NCC(=O)N(C)C)cn12	60
CC(=O)NCCn1ccnc1-c1cccc(C(C)N(C)C)c1 (stereo unspecified)	8
Cc1ccsc1CN(CC(C)C)C(=O)CC1CNCCO1 (stereo unspecified)	-45
COc1ccccc1CN1C[C@@H](C)[C@H](OC)CN(C)C(=O)c2cc(NC(=O)Nc3ccccc3OC)ccc2OC[C@H]1C	54
Cc1cccc(N2CCC3(CCC(=O)N3CC(=O)N(C)C)CC2)n1	1
O=C(CCc1nnc(-c2ccccc2)o1)NCc1ccccc1OC(F)(F)F	-9
C[C@H](CO)N1C[C@H](C)[C@@H](CN(C)C(=O)Nc2cccc3ccccc23)Oc2c(NC(=O)C3CCOCC3)cccc2C1=O	16
C[C@@H]1CN([C@@H](C)CO)C(=O)CCCn2nncc2CO[C@H]1CN(C)C(=O)NC1CCCC1	3

The final three records of the section above lead into the next.
SMILES	Tgondii IFNg
O=C(CCc1nnc(-c2ccccc2)o1)NCc1ccccc1OC(F)(F)F	-9
C[C@H](CO)N1C[C@H](C)[C@@H](CN(C)C(=O)Nc2cccc3ccccc23)Oc2c(NC(=O)C3CCOCC3)cccc2C1=O	16
C[C@@H]1CN([C@@H](C)CO)C(=O)CCCn2nncc2CO[C@H]1CN(C)C(=O)NC1CCCC1	3
C#CCN1C(C)=C(C(=O)OC)C(c2cccc([N+](=O)[O-])c2)C(C(=O)OCC)=C1C (stereo unspecified)	15
CCN(CC)C(=O)c1nc2c(s1)CCN(C(=O)NCc1ccccc1)CC2	59
CCn1nc(C)cc1C(=O)N1CCC2OCCCC2(COC(C)C)C1 (stereo unspecified)	0
O=S(=O)(CCSCc1csc2ccccc12)c1ccc(Cl)cc1Cl	-40
Cc1ccc(S(=O)(=O)N(C)c2cncc(C(=O)Nc3ccccc3Cl)c2)cc1	10
OC(c1ccc(C(F)(F)F)cc1)c1cccc(C(F)(F)F)c1 (stereo unspecified)	-28
FC(F)(F)c1ccc(-c2noc(CN3CCCCC3CN3CCOCC3)n2)cc1 (stereo unspecified)	-28
O=C(O)C1CN(c2ncc(Cl)cc2F)CCN1 (stereo unspecified)	-5
O=C(O)c1coc2c1/C(=N/Nc1ccccc1)CCC2	108
CC(/C=C/C(=O)NO)=C\[C@@H](C)C(=O)c1ccc(N(C)C)cc1	-64
C[C@@H]1CN([C@@H](C)CO)C(=O)c2cc(-c3ccc(C#N)cc3)cnc2O[C@H]1CN(C)Cc1cccnc1	-64
Cc1cc(C(=O)NCc2ccc(S(=O)(=O)N(C)C)cc2)nc(N2CCCCC2)n1	-43
Cc1nc(N2CCCC(CO)(Cc3ccc(F)cc3)C2)c2ccsc2n1 (stereo unspecified)	-69
Cc1ccc(S(=O)(=O)N2CCc3nc(N4CCCC4)nc(C)c3CC2)cc1F	-14
CC(=O)Oc1cccc(C(=O)O)c1OC(C)=O	17

Sorted by formula weight (ascending): some entries from above
SMILES	Tgondii IFNg
CCN(CC)C(=O)c1nc2c(s1)CCN(C(=O)NCc1ccccc1)CC2	59
Cc1ccc(S(=O)(=O)N2CCc3nc(N4CCCC4)nc(C)c3CC2)cc1F	-14
C[C@@H]1CN([C@@H](C)CO)C(=O)c2cc(-c3ccc(C#N)cc3)cnc2O[C@H]1CN(C)Cc1cccnc1	-64

Remaining list, next part:
SMILES	Tgondii IFNg
COc1ccc(CNC(=O)c2nc(Nc3ccc(C)cc3)c3ccccc3n2)c(OC)c1	-25
CN(C)c1cc(N2CC[C@@](C)(O)[C@@H](Cc3ccccc3)C2)ncn1	-38
CCc1ccc(CN(C)C(=O)C2CC(=O)N(c3cccc(O)c3)C2)nc1 (stereo unspecified)	0
COc1ccc2c(c1)NC1(CCN(S(=O)(=O)c3ccc(Cl)s3)CC1)c1cccn1-2	24
CN(C)C(=O)c1cccc(-c2ccc(C3[C@H]4CNC[C@@H]3N4Cc3ccc4c(c3)OCO4)cc2)c1 (stereo partly specified)	-18&-11
CCn1nc(C(=O)N2CCC3(CC2)CN(C(C)=O)c2ccccc2N3)c2ccccc2c1=O	-30
Cc1ccsc1CN1CCN(C)C2(CCN(C(=O)c3ccco3)CC2)C1	16
O=C(Nc1cccc(-c2nc3ccccc3s2)c1)c1cccc2ccccc12	-7
CC(C)C1C2CCC(C2)C1N (stereo unspecified)	9
CN(C)CCOC1C2CCC1N(S(=O)(=O)c1ccc(C#N)cc1)C2 (stereo unspecified)	-41
CCN(CC)c1ncnc2c1cnn2CC(=O)NCc1ccc2c(c1)OCO2	-64
CC(=O)OC(C(=O)NC1CCCCC1)c1ccncc1 (stereo unspecified)	-11
CC(O)(C(=O)Nc1ccc(S(=O)(=O)c2ccccc2)cc1)C(F)(F)F (stereo unspecified)	20&5
O=C(Nc1ccc(Cl)cc1)N1[C@@H]2CNC[C@H]1C2c1ccc(-c2ccccc2)cc1 (stereo partly specified)	-61&36
COc1cc(C[C@H]2C(=O)OC[C@@H]2Cc2ccc(OC)c(OC)c2)ccc1O	-27
COc1ccc(S(=O)(=O)Nc2cccnc2Nc2ccc(O)cc2)cc1	-47
CNC(=O)CN1CCOCC2(C1)CN(Cc1ccn(C)n1)CCO2 (stereo unspecified)	-1
COc1ccc(CCC(=O)NCCc2sc(-c3cccc(F)c3)nc2C)cc1	24
Cc1[nH]c2c(C)ccc(C)c2c1CC(=O)Nc1cccc(Cn2cncn2)c1	7
CN(C)C(=S)Sc1c(O)c2ccccc2n(C)c1=O	46
O=C(Nc1ccccc1I)c1c(O)c2ccccc2[nH]c1=O	25
O=C(c1coc(COc2ccc3c(c2)OCO3)n1)N1CCCN2CCC[C@H]2C1	-4
O=C(NC1CC1)c1cc(N2CCN(C/C=C/c3ccccc3)CC2)ccn1	-20
Cc1ccc2oc(-c3nccn3CCCN3CCCC3=O)c(C)c2c1	-3
Cc1cc(C)n(-c2cccc(C(=O)NCc3cccc(OCC4CCCO4)c3)c2)n1 (stereo unspecified)	21
CCN(Cc1cncn1C)c1ccc(NC(=O)CN2CCOCC2)c(C)c1	-31
O=C(NCC1CC1)[C@H]1CC[C@H]2[C@H](CCN2Cc2ccc(F)cc2)O1	89
Fc1ccc(N2CCCN(Cc3ccc4nonc4c3)CC2)cc1	30
O=C(Cn1c([C@H]2CCCO2)cc2cccnc21)NCCOc1ccccc1	-4
COCCN1C(=O)CCc2cc(NS(=O)(=O)c3cccs3)ccc21	-3
Cc1ccc(N2C(=O)CC(Sc3ccccn3)C2=O)cc1 (stereo unspecified)	-11
COCC1(C(=O)N(Cc2c(C)nn(C)c2C)C(C)C)CCC1	-3
Cc1ccc(-c2coc(-c3ccc(NC(=O)Nc4ccc(C)c(F)c4)cc3)n2)cc1	48
COc1ccc(NC(=O)N2CCN(Cc3nc(-c4cccc(Cl)c4)oc3C)CC2)cc1OC	-1
COc1ccc(CN2CCC3(CC2)CC(c2cccnc2)CO3)cc1 (stereo unspecified)	-13
Cc1nc([C@H]2C[C@H]3CCN(C(=O)Cc4ccc(F)cc4)C[C@@H]3O2)n[nH]1	-38
Cc1nc(N2[C@@H](C#N)[C@@H](c3ccccc3)[C@@H]2CO)sc1C	-6
FC(F)(F)c1cnc(NN=C2C3CC4CC(C3)CC2C4)c(Cl)c1	2
CCO[C@H]1COC[C@@H]1NC(=O)c1cnn2ccn(C)c12	-2
O=C(Nc1ccc(Cl)cc1)c1cc2c(s1)CCN2C(=O)C1CC1	207
c1cncc(CN(CCCN2CCOCC2)Cc2cccn2-c2ccncc2)c1	-9
COC(=O)c1cc(S(=O)(=O)Nc2cc(S(=O)(=O)N(C)C)ccc2C)oc1C	25
CC(c1cccc(-c2nccc(C(F)(F)F)n2)c1)N1CCCC1 (stereo unspecified)	-50
CCOCC1CN(Cc2ccoc2)Cc2ncn(CC3CC3)c21 (stereo unspecified)	94
CC1(C)NC(=O)N(CC(O)COc2ccc(N3C(=O)C4CC=CCC4C3=O)cc2)C1=O (stereo unspecified)	-38
O=C1C2C3C=CC(C3)C2C(=O)N1c1ccc(-c2nc3ccccc3c(=O)o2)cc1 (stereo unspecified)	-13
COC(C)CN(C)C(=O)c1oc2cc(C)ccc2c1C (stereo unspecified)	17

Single entries from the results shown.
CCO[C@H]1COC[C@@H]1NC(=O)c1cnn2ccn(C)c12 | Tgondii IFNg: -2
Cc1nc([C@H]2C[C@H]3CCN(C(=O)Cc4ccc(F)cc4)C[C@@H]3O2)n[nH]1 | Tgondii IFNg: -38
CCOCC1CN(Cc2ccoc2)Cc2ncn(CC3CC3)c21 (stereo unspecified) | Tgondii IFNg: 94
CC1(C)NC(=O)N(CC(O)COc2ccc(N3C(=O)C4CC=CCC4C3=O)cc2)C1=O (stereo unspecified) | Tgondii IFNg: -38
Cc1ccc(-c2coc(-c3ccc(NC(=O)Nc4ccc(C)c(F)c4)cc3)n2)cc1 | Tgondii IFNg: 48
O=C(Nc1ccc(Cl)cc1)c1cc2c(s1)CCN2C(=O)C1CC1 | Tgondii IFNg: 207
c1cncc(CN(CCCN2CCOCC2)Cc2cccn2-c2ccncc2)c1 | Tgondii IFNg: -9

Source: PubChem (Broad Institute)
